Screens (PubChem BioAssay)
NS1 inh – influenza NS1 inhibition. S. cerevisiae slowed by influenza A NS1, growth recovery by OD600. Potency, µM (top dose mostly 46.1 µM), inactives show top-dose activity, positive = more growth. 270,000 compounds, 0.4% hits; active means well fitted rising curve with a large enough effect; inconclusive means small, poorly fitted or top-dose-only effect; inactive means no such curve, though single readings can be large or run the other way; also: nearly all actives have a fitted effect of over 50% in size
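Compounds were scored for reversing the slow growth caused by influenza A NS1 in S. cerevisiae, measured by optical density at 600 nm. Assay medium contained 2% galactose at pH 6.0; NS1-free yeast of the same strain were the positive control.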
SARS PLpro yeast – SARS-CoV PLP inhibition in yeast | AID 485353 | S. cerevisiae expressing SARS-CoV PLpro, growth rescue; control for the full effect not named in the record | 330,000 compounds, 0.19% hits | Potency, µM (highest dose often 32.9 µM), inactives show at the highest dose activity, positive = growth rescue; active means well fitted rising curve with a large enough effect; inconclusive means small, poorly fitted or top-dose-only effect; inactive means no such curve, though single readings can be large or run the other way; also: 0% is about no effect; nearly all actives have a fitted effect of over 55% in size; growth read by luminescence after 48 h
Lassa entry inh – blocks Lassa virus binding to or entry into cells | Lassa virus pseudotype entry inhibition, cell reporter; control for the full effect not named in the record | Potency, µM (top dose mostly 37.9 µM), inactives show at the highest dose activity change, negative = inhibition, hits mostly inhibitors | 300,000 compounds, 1.2% hits | AID 540256; active means well fitted inhibition curve with a large enough effect; inconclusive means small, poorly fitted or top-dose-only effect, or effect the other way; inactive means flat fitted curve, though single readings scatter; tested in HEK293 cells; also: % is scaled to controls: 0 for no effect and ±100 for the full control effect; nearly all actives have a fitted effect of over 50% in size; luciferase read-out
Cruzain inh noDet – inhibitors of Trypanosoma cruzi cruzain without detergent. P25779. purified cruzain, Z-FR-AMC fluorescence, no detergent. Potency, µM, for the others: max response, negative = inhibition, hits mostly inhibitors. 200,000 compounds, 2.3% hits. AID 1476;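 also: plate controls were enzyme without inhibitor for no effect and buffer without enzyme for full effect; nearly all actives have a fitted effect of over 40% in size; top concentration of the series not given in the record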
Target sequence (P25779 123-467 limits assumed): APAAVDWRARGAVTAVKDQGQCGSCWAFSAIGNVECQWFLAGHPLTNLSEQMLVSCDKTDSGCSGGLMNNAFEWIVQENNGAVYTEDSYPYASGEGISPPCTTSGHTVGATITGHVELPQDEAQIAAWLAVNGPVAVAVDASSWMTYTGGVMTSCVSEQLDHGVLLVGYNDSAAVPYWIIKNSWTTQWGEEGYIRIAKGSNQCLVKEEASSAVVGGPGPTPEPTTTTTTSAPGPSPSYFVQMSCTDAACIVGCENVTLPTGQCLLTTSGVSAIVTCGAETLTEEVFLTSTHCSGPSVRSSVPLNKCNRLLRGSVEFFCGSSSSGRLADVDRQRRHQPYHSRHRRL
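Purified cruzain at 1.5 nM, pre-incubated 15 min with compound at room temperature in 100 mM sodium acetate pH 5.5, 5 mM DTT, 0.00005% Triton X-100. Reaction started with 2 uM Z-FR-AMC; AMC fluorescence increase over 60 s gives rate.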
Marburg entry inh – blocks Marburg virus binding to or entry into cells. 300,000 compounds, 1.8% hits. Marburg virus pseudotyped entry inhibition, cell reporter; control for the full effect not named in the record; about a third of the inactives were read at about 46 µM. Potency, µM (doses to about 37.8 µM), inactives show at the highest dose activity change, negative = inhibition, most hits filed as inhibitors; active = well fitted inhibition curve with a large enough effect; inconclusive = small, poorly fitted or top-dose-only effect, or effect the other way; inactive = flat fitted curve, though single readings scatter; tested in HEK293 cells; about a fifth of its hits are not listed in these tables; also: % is scaled to controls: 0 for no effect and ±100 for the full control effect; luciferase read-out
2A StopGo – FMDV 2A StopGo reporter, luciferase signal. AID 1159524. 410,000 compounds, 1.2% hits. Potency, µM (titrated, usually from 57.9 µM), for inactives: at the top dose signal change, negative = less light. human cells with a luciferase reporter of 2A StopGo recoding; control for the full effect not named in the record; active = well fitted falling curve with a large enough effect; inconclusive = small, poorly fitted or top-dose-only effect; inactive = no such curve, though single readings can be large or run the other way; tested in HEK293T cells; also: % is scaled to controls: 0 for no effect and ±100 for the full control effect; nearly all actives have a fitted effect of over 45% in size; luciferase light after 4 h
Cruzain inh Det – blocks cruzain activity in presence of Triton detergent. P25779. purified cruzain, Z-FR-AMC fluorescence, 0.01% Triton. Potency, µM, for inactives: max response, negative = inhibition, most hits filed as inhibitors. AID 1478. 200,000 compounds, 0.43% hits;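 also: plate controls were neutral wells for no effect and buffer without enzyme for full effect; nearly all actives have a fitted effect of over 40% in size; top concentration of the series not given in the record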
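Z-FR-AMC hydrolysis (2 uM substrate) by cruzain (1.5 nM) monitored kinetically at ex 360/em 450 nm after 15 min room-temperature compound exposure; 0.01% Triton X-100, pH 5.5, 5 mM DTT.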
RE007 growth inh – less growth of the S. pombe RE007 Vpr strain. S. pombe RE007 Vpr strain, BacTiter-Glo ATP luminescence, 24 h; control for the full effect not named in the record. Potency, µM (top dose mostly 92.2 µM), inactives show at the top dose activity change, negative = less growth. 360,000 compounds, 0.21% hits; active = well fitted falling curve with a large enough effect; inconclusive = small, poorly fitted or top-dose-only effect; inactive = no such curve, though single readings can be large or run the other way;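 also: % is scaled to controls: 0 for no effect and ±100 for the full control effect; nearly all actives have a fitted effect of over 50% in size; the assay follows cell death caused by Vpr and the record does not say whether a fall means rescue or toxicity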
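Fission yeast RE007 carrying one integrated HIV-1 vpr copy, seeded at OD 0.01 in PMG+AL medium with 23 nL pinned compound. Grown 24 h at 30 degrees; viability read by BacTiter-Glo luminescence after 5 min.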
Starred values were filed as active, the others as inactive; ? = inconclusive; nt = not tested or not shown; & = joins results of further samples; [ ] = dose if it differs, or a comment. Unless noted, calls follow the shape of the dose curve; as a rule, active = well fitted curve in the direction sought with a large enough effect; inconclusive = small, poorly fitted or top-dose-only effect, or another doubt; inactive = no such curve, though single readings can be large; an effect the other way counts as inactive or inconclusive. Potency is read from the fitted curve at half-maximal effect.

Preview, two compounds:
nr	SMILES	Cruzain inh Det	Lassa entry inh	NS1 inh	Marburg entry inh	SARS PLpro yeast	2A StopGo	RE007 growth inh	Cruzain inh noDet
1	COc1ccc(-n2c(-c3ccc(C)cc3)cc3c2CC(C)(C)CC3=O)c(OC)c1	-2.7%	?	nt	?	nt	-11%	nt	-8%
2	O=C(O)c1cccc2c1NC(C(=O)O)C1CC(Sc3ccccc3[N+](=O)[O-])C(Cl)C21 (stereo not given)	-25%	-14%	?	14%	15%	-26%	-35%	?

The listing, previewed entries included:
nr	SMILES	Cruzain inh Det	Lassa entry inh	NS1 inh	Marburg entry inh	SARS PLpro yeast	2A StopGo	RE007 growth inh	Cruzain inh noDet
1	COc1ccc(-n2c(-c3ccc(C)cc3)cc3c2CC(C)(C)CC3=O)c(OC)c1	-2.7%	?	nt	?	nt	-11%	nt	-8%
2	O=C(O)c1cccc2c1NC(C(=O)O)C1CC(Sc3ccccc3[N+](=O)[O-])C(Cl)C21 (stereo not given)	-25%	-14%	?	14%	15%	-26%	-35%	?
3	COc1ccc(N(CC(=O)Nc2cccc3ccccc23)S(C)(=O)=O)c(OC)c1	nt	nt	6%	nt	3%	12%	16%	nt
4	O=C(NCC1CCN(Cc2ccc(F)cc2)CC1)Nc1cc(F)ccc1F	nt	nt	4%	nt	0%	-7%	-26%	nt
5	CN(Cc1ccc(-n2cccn2)cc1)Cc1nc(-c2cnccn2)no1	nt	-8%[46.1 µM]	1%	?	1%	-3%	-6%	nt
6	COc1ccc(OC)c(S(=O)(=O)NCCOC23CC4CC(CC(C4)C2)C3)c1	-7.2%	?	-30%	?	-46%	-2%	1%	1%
7	COc1ccc(N2CCN(CC(O)COC(c3ccc(F)cc3)c3ccc(F)cc3)CC2)cc1 (stereo not given)	nt	nt	-3%	nt	-1%	-19%	-18%	nt
8	Cc1csc(=O)n1CC(=O)OCC(=O)NCc1ccccc1	nt	14%	nt	11%	3%	16%	13%	nt
9	Cc1c(NC(=O)C2CC(c3ccc(F)cc3)=NO2)c(=O)n(-c2ccccc2)n1C (stereo not given)	11%	nt	4%	5%	5%	-11%	-10%	-14%
10	COCCCn1c(SCC(=O)NC2CCCC2)nnc1-c1ccncc1	nt	nt	-13%	5%[46.1 µM]	-2%	-2%	-13%	nt
11	CCOCCCNC(=O)c1ccc(OC)cc1	4.4%	?	5%	19%[46.1 µM]	-3%	67%[activator]	2%	-18%
12	O=C(O)c1ccc(CSc2nnc(-c3ccncc3)n2CC2CCCO2)cc1 (stereo not given)	0.0%	-13%	2%	10%	10%	-1%	4%	-8%
13	CN1CCN(S(=O)(=O)c2ccc(C(=O)Nc3ccccc3)cc2)CC1	4.2%	0%	?	18%	6%	17%	3%	-10%
14	Cc1ccc(Oc2nc3ccccc3n3c(C)nnc23)cc1	1.0%	16%	-1%	?	-1%	11%	0%	16%
15	O=C1N/C(=C/c2ccc(Br)cc2)C(O)=C1C=NCc1ccccc1	-3.1%	-8%	4%	?	-1%	-22%	15%	20µM*
16	O=C(c1cc2nc(-c3cccs3)cc(C(F)(F)Cl)n2n1)N1CCCc2ccccc21	-3.1%	-3%	15%	?	2%	nt	5%	?
17	CC(=O)c1ccc(N2CCN(C(=O)c3n[nH]c4ccccc34)CC2)cc1	nt	-12%	nt	?	0%	?	-4%	nt
18	Cc1cn(CC(C)C)c(=O)n(-c2ccccc2)c1=O	nt	9%[46.1 µM]	nt	2%[46.1 µM]	nt	8%	25%	nt
19	c1ccc(CCN2CN=C(Nc3nc4ccccc4s3)NC2)cc1	nt	nt	-33%	nt	0%	8%	3%	nt
20	COc1cc(Cl)c(C)cc1NS(=O)(=O)c1c(C)nc2sccn2c1=O	-6.8%	-7%[46.1 µM]	nt	nt	nt	19%	nt	-6%
21	Cc1noc(C)c1C(=O)OCC(=O)C12CC3CC(CC(C3)C1)C2	nt	20%[46.1 µM]	nt	-3%[46.1 µM]	1%	-11%	14%	nt
22	Fc1ccccc1OCc1nc(-c2ccc(-n3cccc3)cc2)no1	-3.5%	25%[46.1 µM]	nt	?	nt	18%	nt	-15%
23	COc1cc(OC)c(NC(=O)CSc2cc(=O)n(C)c3ccc(Cl)cc23)cc1Cl	0.0%	-10%[46.1 µM]	nt	12%[46.1 µM]	nt	-28%	nt	1%
24	COc1ccc(NC(=S)N2CCCC2)c(OC)c1	nt	1%[46.1 µM]	1%	3%[46.1 µM]	1%	-20%	0%	nt
25	CC(=O)c1ccc(C(=O)N2CCCC(C(=O)c3cc(F)ccc3F)C2)s1 (stereo not given)	nt	-10%[46.1 µM]	-7%	7%[46.1 µM]	0%	23%	2%	nt
26	COc1cc(C(=O)NCc2nnc(SCC(=O)N3CCC(C)CC3)o2)cc(OC)c1OC	2.6%	?	-4%	?	10%	3%	-9%	-1%
27	COc1cc(CNCc2cccnc2)ccc1OCC(=O)NC1CCCCC1	nt	?	nt	4%[46.1 µM]	-4%	-21%	-2%	nt
28	CCOC(=O)c1ccccc1NC(=O)N(Cc1ccc(C)cc1)Cc1cccn1-c1nnc(N2CCCC2=O)s1	-1.3%	nt	nt	-8%[46.1 µM]	nt	-9%	nt	3%
29	Cc1ccc(C)c(OCC(=O)NCC(C)C)c1C	-3.5%	2%	0%	4%	11%	-5%	-9%	-9%
30	O=C(NCCN1CCCCC1)Nc1ccc(F)cc1F	nt	12%[46.1 µM]	0%	?	1%	0%	-18%	nt
31	CCC(C)(C)NC(=O)C(c1ccc(F)cc1)N(Cc1ccco1)C(=O)c1cnccn1 (stereo not given)	-0.4%	0%	-1%	-10%	-7%	nt	8%	5%
32	CCCSc1nc2c(cnn2-c2ccccc2)c(=O)n1N	nt	8.9µM*	-8%	?	-1%	-6%	-5%	nt
33	CCOC(=O)c1cnc2c(Cl)cc(Cl)cc2c1Nc1cc(C(=O)O)ccc1C	-2.4%	0%[46.1 µM]	nt	-1%[46.1 µM]	nt	2%	nt	-3%
34	COc1ccc(C(=O)Oc2ccc(N(C)S(=O)(=O)c3ccccc3)cc2)cc1[N+](=O)[O-]	nt	-16%[46.1 µM]	?	3%[46.1 µM]	?	0%	12%	nt
35	CC1CCC2C(=O)N(c3ccc(C(=O)NCc4ccccc4)cc3)C(=O)C2C1 (stereo not given)	-4.8%	0%	1%	10%	1%	-20%	21%	-9%
36	CCCOC(=O)c1cccc(NC(=O)CSc2nnc3cc(C)c4ccccc4n23)c1	6.4%	13%[46.1 µM]	nt	2%[46.1 µM]	nt	31%[activator]	nt	4%
37	Cc1ccc(Cn2c3ccccc3c3cnn(CC(=O)Nc4cc(Cl)ccc4C)c(=O)c32)cc1	-3.2%	nt	nt	2%[46.1 µM]	nt	21%	nt	-8%
38	CC(=O)c1ccccc1NC(=O)Cn1c(=O)cnc2ccccc21	-2.5%	2%	?	2%[46.1 µM]	-4%	1%	-4%	3%
39	O=C(c1ccc(CNS(=O)(=O)c2ccc(Br)cc2)cc1)N1CCCC1	nt	-14%	nt	0%	-8%	36%[activator]	-1%	nt
40	O=C(NCc1ccc(Cl)cc1)C(=O)Nc1cccc(Br)c1	-0.5%	8%[46.1 µM]	nt	nt	nt	-4%	nt	8%
41	O=C(N/N=C\c1ccc(Cl)s1)C1COc2ccccc2O1 (stereo not given)	nt	nt	-8%	nt	-9%	0%	-4%	nt
42	CC(C)N(Cc1nnc(-c2ccc(Cl)cc2)o1)C(=O)C1=COCCO1	nt	17%	nt	1%[46.1 µM]	0%	-2%	-1%	nt
43	CC(C)NC(=O)CSc1nnc(-c2ccc3ncccc3c2)n1C	nt	nt	7%	nt	-2%	-6%	-1%	nt
44	COc1cc(/C=C/C(=O)OCC(=O)Nc2c(C)n(C)n(-c3ccccc3)c2=O)ccc1O	nt	0%[46.1 µM]	-8%	-3%[46.1 µM]	-7%	-10%	-3%	nt
45	O=C(COC(=O)C1CCCN1C(=O)c1cccs1)Nc1ccc2c(c1)OCO2 (stereo not given)	-3.5%	-2%	-22%	9%&9%	8%	-3%	0%	-19%
46	O=C(CSC1=NCCS1)Nc1ccccc1F	10%	-8%	-4%	3%	11%	23%	-27%	-7%
47	CCOC(=O)N1CCN(C/C(C)=C/c2ccccc2)CC1	0.8%	1%	2%	18%	2%	28%	7%	2%
48	CN(C)S(=O)(=O)c1ccc(N2CCCC2)c(C(=O)Nc2ccc(Br)cc2F)c1	nt	-6%	nt	10%	-16%	-18%	0%	nt
49	COc1ccc(-c2nc(-n3c(C)c(C(C)=O)c(C(C)=O)c3C)sc2C)cc1OC	-2.5%	3%	0%	-21%	4%	-28%	9%	17%
50	CCOc1ccc(-c2nnc3ccc(SCC(=O)NCc4ccco4)nn23)cc1	-3.7%	-13%	-30%	1%	-1%	12%	4%	8%
51	O=C(O)c1ccc(OCCOc2ccccc2)cc1	nt	nt	-44%	nt	1%	9%	-9%	nt
52	COc1ccccc1N(CC(=O)Nc1ccc(C(F)(F)F)cc1)S(C)(=O)=O	nt	-14%	5%	0%[46.1 µM]	-1%	-2%	-4%	nt
53	CC(=O)c1cn(N2CCCCC2)c(=O)[nH]c1=O	nt	13%[46.1 µM]	3%	-3%[46.1 µM]	-2%	-12%	10%	nt
54	NC(=O)c1[nH]cnc1N	nt	22%[46.1 µM]	-10%&1%	0%[46.1 µM]	?	0%&-5%	8%&10%	nt
55	Cc1cccc(C(C)C)c1NC(=O)COC(=O)c1cccc(S(=O)(=O)N2CCc3ccccc3C2)c1	1.2%	?	21%	0%	-5%	-10%	-17%	25µM*
